MLL AF4-AF9 inh = blocks AF4 peptide binding to human AF9; actives 0.47% (n = 350,000); inhibition, % at 10 µM; AlphaScreen, biotin-AF4 peptide binding to FLAG-AF9;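 active = every replicate reaching a set inhibition limit, whatever the replicate mean, cut at about 25% in these data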;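 note: 0% = plate neutral control median and 100% = total signal loss; the record names both 10 and 1 µM as test concentration; the first replicate is given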
Target sequence (P42568 whole entry, looked up): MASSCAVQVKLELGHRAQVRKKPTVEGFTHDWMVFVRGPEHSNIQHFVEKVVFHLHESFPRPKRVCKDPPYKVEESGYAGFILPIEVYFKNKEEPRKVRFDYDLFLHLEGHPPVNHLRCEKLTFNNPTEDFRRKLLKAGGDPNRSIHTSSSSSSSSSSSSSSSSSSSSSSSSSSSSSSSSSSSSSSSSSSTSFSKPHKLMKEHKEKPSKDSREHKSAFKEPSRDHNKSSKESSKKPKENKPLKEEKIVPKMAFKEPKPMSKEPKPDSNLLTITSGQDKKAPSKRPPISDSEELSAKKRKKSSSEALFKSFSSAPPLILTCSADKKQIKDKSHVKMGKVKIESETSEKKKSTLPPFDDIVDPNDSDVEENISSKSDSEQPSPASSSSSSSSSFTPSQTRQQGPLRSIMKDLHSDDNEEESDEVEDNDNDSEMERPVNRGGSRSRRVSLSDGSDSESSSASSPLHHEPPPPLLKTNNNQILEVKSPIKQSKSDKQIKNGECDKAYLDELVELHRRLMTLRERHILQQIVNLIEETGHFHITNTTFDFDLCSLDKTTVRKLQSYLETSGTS
Active calls of the source: *. A portion of the library; rates above refer to the full screens.

`C[C@@H]1CN([C@H](C)CO)C(=O)c2cc(NC(=O)C3CCCCC3)ccc2O[C@@H](C)CCCCO[C@H]1CN(C)C(=O)c1ccncc1` gave MLL AF4-AF9 inh -4.6.
Screening CCS(=O)(=O)Nc1ccc2c(c1)C(=O)N(C)[C@H]1CC[C@@H](CC(=O)N3CCCCC3)O[C@@H]1CO2 returned MLL AF4-AF9 inh -1.2.
C=CCNC(=O)c1cc2cc(Cl)ccc2nc1N was read as MLL AF4-AF9 inh 0.0.
Cc1ccc(S(=O)(=O)Nc2ccc3c(c2)CC(=O)N([C@@H](C)CO)C[C@@H](C)[C@H](CN(C)CC2CCCCC2)O3)cc1 was read as MLL AF4-AF9 inh 8.4.
`CCC(=O)N1CCCCN2[C@@H](CO)[C@@H](c3ccc(C#Cc4ccccc4)cc3)[C@@H]2C1` gave MLL AF4-AF9 inh -1.9.
Screening C[C@H](NC(=O)C[C@@H]1C[C@H]2c3cc(NC(=O)CN(C)C)ccc3O[C@H]2[C@H](CO)O1)c1ccccc1 returned MLL AF4-AF9 inh -0.3.
C[C@@H]1CN([C@H](C)CO)C(=O)c2c(c3ccccc3n2C)-c2ccccc2CO[C@@H]1CN(C)S(=O)(=O)c1cn(C)cn1 was read as MLL AF4-AF9 inh -1.9.
For CC(=O)N(C)C[C@@H]1Oc2cc(C#Cc3ccccc3F)ccc2S(=O)(=O)N([C@H](C)CO)C[C@H]1C the results were MLL AF4-AF9 inh -4.5.
COc1ccc(CC(N)c2csc(NC(=O)c3cc(C(C)(C)C)nn3Cc3ccccc3)n2)cc1 (centres undefined) was read as MLL AF4-AF9 inh 2.5.
`Cc1ccc(S(=O)(=O)N(C)C[C@H]2Oc3ccc(N(C)C)cc3C(=O)N([C@@H](C)CO)C[C@@H]2C)cc1` gave MLL AF4-AF9 inh 3.5.
For Cc1ccc(S(=O)(=O)Nc2ccc3c(c2)CC(=O)N([C@H](C)CO)C[C@H](C)[C@@H](CN(C)Cc2ccccc2)O3)cc1 the results were MLL AF4-AF9 inh 9.0.
Screening CCNC(=O)C1(C)CCN(C(=O)c2cc(C)oc2C)C1 (centres undefined) returned MLL AF4-AF9 inh -1.5.
C[C@@H]1CN([C@@H](C)CO)C(=O)c2cc(NC(=O)C3CC3)ccc2O[C@H]1CN(C)Cc1ccc(Cl)c(Cl)c1 was read as MLL AF4-AF9 inh 3.7.
Screening CO[C@@H]1CN(C)C(=O)c2cc(NC(=O)c3ccc(-c4ccccc4)cc3)ccc2OC[C@H](C)NC[C@H]1C returned MLL AF4-AF9 inh 5.6.
`COc1cccc(C(=O)Nc2ccc3c(c2)OC[C@H](C)N(C(C)=O)C[C@H](C)[C@@H](OC)CN(C)C3=O)c1` gave MLL AF4-AF9 inh 0.5.
Screening O=S(=O)(c1ccccc1)N1[C@@H]2CNc3ccccc3[C@@H]2[C@@H]1CO returned MLL AF4-AF9 inh 0.1.
Screening CN1C(=O)c2cc(NC(=O)C3CCOCC3)ccc2OC[C@@H]2O[C@H](CC(=O)NC3CCCC3)CC[C@@H]21 returned MLL AF4-AF9 inh 0.0.
For C[C@H](CO)N1C[C@H](C)[C@@H](CN(C)S(=O)(=O)c2ccc(Cl)cc2)Oc2ccc(NS(C)(=O)=O)cc2CC1=O the results were MLL AF4-AF9 inh -0.3.
For Cc1ccc(S(=O)(=O)N[C@H]2C=C[C@@H](CC(=O)N3CCc4ccccc4C3)O[C@@H]2CO)cc1 the results were MLL AF4-AF9 inh -1.9.
Screening Cc1noc(C)c1NC(=O)N(C)C[C@@H]1OCCCC[C@@H](C)Oc2ccc(NC(=O)Nc3ccc(F)cc3)cc2C(=O)N([C@H](C)CO)C[C@H]1C returned MLL AF4-AF9 inh 0.1.
For CCCC(=O)Nc1ccc2c(c1)C(=O)N(C)C[C@H](OC)[C@H](C)CN(Cc1nccs1)[C@H](C)CO2 the results were MLL AF4-AF9 inh -8.5.
For CN(Cc1ccccc1)C(=O)c1csc([C@@H]2O[C@H](CO)[C@@H](O)[C@H]2O)n1 the results were MLL AF4-AF9 inh -10.
Screening C[C@H]1CCCCO[C@@H](CN(C)Cc2ccncc2)[C@@H](C)CN([C@@H](C)CO)C(=O)c2cc(NC(=O)C3CCCCC3)ccc2O1 returned MLL AF4-AF9 inh 1.2.
Screening CCc1nc2c(OCc3ccc(C#N)cc3)cccn2c1N(C)C(=O)C(C)C returned MLL AF4-AF9 inh 0.3.
`CNC[C@H]1Oc2cc(C#Cc3cccnc3)ccc2S(=O)(=O)N([C@@H](C)CO)C[C@@H]1C` gave MLL AF4-AF9 inh 2.7.
`C[C@@H]1CN([C@@H](C)CO)S(=O)(=O)c2ccc(C#Cc3ccncc3)cc2O[C@H]1CN(C)C` gave MLL AF4-AF9 inh -7.0.
For CNC[C@H]1Oc2ccc(NC(=O)Nc3cccc4ccccc34)cc2C(=O)N([C@@H](C)CO)C[C@@H]1C the results were MLL AF4-AF9 inh 1.1.
Screening C[C@@H]1CCCCO[C@H](CN(C)S(=O)(=O)c2ccc(Cl)cc2)[C@@H](C)CN([C@H](C)CO)C(=O)c2cc(NS(=O)(=O)c3ccc(F)cc3)ccc2O1 returned MLL AF4-AF9 inh -2.1.
O=C(C[C@@H]1C=C[C@@H](NC(=O)CN2CCOCC2)[C@H](CO)O1)NC1CCC1 was read as MLL AF4-AF9 inh -1.0.
`CO[C@H]1CN(C)C(=O)c2cc(NC(=O)Cc3ccccc3)ccc2OC[C@H](C)NC[C@H]1C` gave MLL AF4-AF9 inh 1.4.
For O=C(C[C@@H]1CC[C@H](NC(=O)Nc2cc(F)ccc2F)[C@@H](CO)O1)NCCCN1CCOCC1 the results were MLL AF4-AF9 inh 0.1.
`COCC(=O)N(C)C[C@@H]1Oc2ncc(C#CC3(O)CCCC3)cc2C(=O)N([C@@H](C)CO)C[C@H]1C` gave MLL AF4-AF9 inh -1.0.
Screening C[C@H](CO)N1C[C@H](C)[C@H](CN(C)Cc2ccncc2)OCCCC[C@H](C)Oc2ccc(NS(=O)(=O)c3cccs3)cc2C1=O returned MLL AF4-AF9 inh 5.8.
CC1(Cc2ccc(Cl)c(Cl)c2)C(=O)Nc2c(Cl)ccc(Cl)c21 (centres undefined) was read as MLL AF4-AF9 inh -3.6.
`C[C@@H]1CN([C@@H](C)CO)C(=O)c2cccc(NC(=O)NC3CCCCC3)c2O[C@@H]1CN(C)C(=O)Nc1ccc(F)cc1` gave MLL AF4-AF9 inh 1.3.
CCCC#Cc1ccc2c(c1)O[C@@H](CN(C)C(=O)NC(C)C)[C@@H](C)CN([C@@H](C)CO)S2(=O)=O was read as MLL AF4-AF9 inh 1.4.
CC(C)NC(=O)N(C)C[C@@H]1Oc2c(NC(=O)c3cnccn3)cccc2C(=O)N([C@H](C)CO)C[C@H]1C was read as MLL AF4-AF9 inh -2.2.
For CO[C@@H]1CN(C)C(=O)c2cc(NS(C)(=O)=O)ccc2OC[C@@H](C)N(C(=O)C2CC2)C[C@@H]1C the results were MLL AF4-AF9 inh 0.6.
Cc1ccc(S(=O)(=O)N2C3CCCCC3O[C@H]2CC(=O)c2ccc(F)cc2)cc1 (some centres undefined) was read as MLL AF4-AF9 inh -5.5.
C[C@@H]1CCCCO[C@@H](CN(C)Cc2ccc(C(=O)O)cc2)[C@@H](C)CN([C@@H](C)CO)C(=O)c2cc(NC(=O)CCC(F)(F)F)ccc2O1 was read as MLL AF4-AF9 inh -1.3.
C[C@H](CO)N1C[C@H](C)[C@@H](CN(C)Cc2ccc(C(=O)Nc3ccccc3N)cc2)Oc2c(NS(=O)(=O)c3ccc(F)cc3)cccc2C1=O was read as MLL AF4-AF9 inh 1.9.
CN(C)C(=O)C[C@H]1C=C[C@@H](NC(=O)NC2CCCCC2)[C@H](CO)O1 was read as MLL AF4-AF9 inh -0.7.
Screening C[C@@H]1CN([C@H](C)CO)C(=O)c2cc(NC(=O)CCC(F)(F)F)ccc2O[C@@H]1CN(C)Cc1ccccc1 returned MLL AF4-AF9 inh -5.5.
For C[C@H](CO)N1C[C@H](C)[C@H](CN(C)C(=O)Nc2ccc(F)cc2)Oc2ccc(NC(=O)c3ccncc3)cc2CC1=O the results were MLL AF4-AF9 inh -1.0.
For C[C@@H]1CCCCO[C@H](CN(C)CC2CC2)[C@@H](C)CN([C@H](C)CO)C(=O)c2cc(NC(=O)Nc3ccc(F)cc3)ccc2O1 the results were MLL AF4-AF9 inh 0.4.
`CN1C(=O)c2cc(NC(=O)c3cccc(F)c3)ccc2OC[C@@H]2O[C@H](CC(=O)N3CCc4ccccc4C3)CC[C@@H]21` gave MLL AF4-AF9 inh 0.4.
For C[C@@H]1CN([C@H](C)CO)C(=O)c2cc(NC(=O)CCN3CCOCC3)ccc2O[C@H]1CN(C)C the results were MLL AF4-AF9 inh -2.6.
`CN(C)C(=O)c1ccc(-c2ccc3c(c2)[C@@H]2[C@@H](CCN2C(=O)c2cnccn2)[C@@H](CO)N3)cc1` gave MLL AF4-AF9 inh -0.5.
For CO[C@H]1CN(C)C(=O)c2ccc(NC(=O)Cc3ccccc3)cc2OC[C@H](C)N(C)C[C@H]1C the results were MLL AF4-AF9 inh 0.8.
`CC(=O)N1[C@@H]2c3cccc(=O)n3C[C@H]1[C@H](CO)[C@H]2C(=O)N[C@@H](C)c1ccccc1` gave MLL AF4-AF9 inh -1.5.
Screening COc1ccc(NC(=O)N(C)C[C@@H]2Oc3ccc(NC(=O)Nc4ccccc4)cc3CC(=O)N([C@H](C)CO)C[C@@H]2C)cc1 returned MLL AF4-AF9 inh 1.4.
`Cc1ccc(S(=O)(=O)NC(=O)C2(C)CCN2C(=O)C2CC2)cc1` (centres undefined) gave MLL AF4-AF9 inh -7.0.
`CN(C)CC(=O)Nc1ccc2c(c1)[C@@H]1C[C@@H](CC(=O)NCc3cccnc3)O[C@@H](CO)[C@@H]1O2` gave MLL AF4-AF9 inh 0.1.
Screening CCN(CC)CCN(C)C(c1ccnc2ccccc12)c1nnnn1-c1ccc2c(c1)OCCO2 (centres undefined) returned MLL AF4-AF9 inh 1.4.
For COCC#Cc1cnc2c(c1)C(=O)N([C@H](C)CO)C[C@H](C)[C@@H](CN(C)C(=O)Nc1cc(F)ccc1F)O2 the results were MLL AF4-AF9 inh 0.0.
`C[C@H](CO)N1C[C@H](C)[C@H](CN(C)C(=O)c2ccc3c(c2)OCO3)Oc2cc(C#Cc3ccccc3F)ccc2S1(=O)=O` gave MLL AF4-AF9 inh -0.7.
Screening C[C@@H]1CN([C@@H](C)CO)C(=O)c2cc(NC(=O)Nc3ccc(F)cc3)ccc2O[C@@H](C)CCCCO[C@@H]1CN(C)C(=O)c1ccccc1 returned MLL AF4-AF9 inh -11.
`COc1ccc(/C=C2\SC(=O)N(CCCC(=O)Nc3ccc(C(=O)O)cc3)C2=O)cc1` gave MLL AF4-AF9 inh -4.0.
Screening CNc1nc(NCc2ccccc2)c2sccc2n1 returned MLL AF4-AF9 inh -4.3.
Screening CNC[C@H]1Oc2ccc(NS(=O)(=O)c3cccs3)cc2CC(=O)N([C@@H](C)CO)C[C@@H]1C returned MLL AF4-AF9 inh -0.8.
For CN1C(=O)c2cc(NC(=O)NC3CCCC3)ccc2OC[C@@H]2O[C@H](CC(=O)NCC3CC3)CC[C@H]21 the results were MLL AF4-AF9 inh -4.0.
For O=C(N[C@H]1CC[C@H](CCNS(=O)(=O)c2ccccc2)O[C@@H]1CO)c1cccnc1 the results were MLL AF4-AF9 inh -1.5.
`C[C@@H]1CN([C@H](C)CO)C(=O)c2cccc(NS(=O)(=O)c3ccc(Cl)cc3)c2O[C@@H]1CN(C)Cc1ccncc1` gave MLL AF4-AF9 inh 4.5.
C[C@H]1CN([C@@H](C)CO)C(=O)Cc2cc(NC(=O)CCN3CCOCC3)ccc2O[C@@H]1CN(C)C(=O)Nc1ccccc1 was read as MLL AF4-AF9 inh -1.8.
For Cc1noc(C)c1NC(=O)N(C)C[C@@H]1Oc2ccc(NC(=O)c3ccncc3)cc2CC(=O)N([C@H](C)CO)C[C@@H]1C the results were MLL AF4-AF9 inh -1.3.
`CO[C@@H]1CN(C)C(=O)c2ccc(NC(=O)c3ccc(F)cc3)cc2OC[C@@H](C)N(C(C)=O)C[C@H]1C` gave MLL AF4-AF9 inh -1.6.
O=C(C1=C[C@@H](c2ccc3c(c2)OCO3)C[C@@H](OCc2ccc(CO)cc2)O1)N1CCCCC1 was read as MLL AF4-AF9 inh -3.0.
O=C(Cc1ccncc1)NCC[C@H]1CC[C@H](NC(=O)Nc2cccc(F)c2)[C@H](CO)O1 was read as MLL AF4-AF9 inh 0.2.
Screening Cc1cc(C(=O)Nc2cccc3c2O[C@H](CN(C)C)[C@H](C)CN([C@@H](C)CO)C3=O)n(C)n1 returned MLL AF4-AF9 inh -2.3.
`CS(=O)(=O)N1[C@H](C#N)[C@@H](c2ccc(C#CC3CCCC3)cc2)[C@@H]1CO` gave MLL AF4-AF9 inh 2.9.
For C[C@H]1[C@@H](c2ccccc2)Oc2ccc(Cl)cc2S(=O)(=O)N1Cc1ccc(F)cc1F the results were MLL AF4-AF9 inh -3.0.

Sorted by SMILES length (high to low): part of the list above
C[C@H]1CN([C@@H](C)CO)C(=O)Cc2cc(NC(=O)CCN3CCOCC3)ccc2O[C@@H]1CN(C)C(=O)Nc1ccccc1 was read as MLL AF4-AF9 inh -1.8.
`CO[C@@H]1CN(C)C(=O)c2ccc(NC(=O)c3ccc(F)cc3)cc2OC[C@@H](C)N(C(C)=O)C[C@H]1C` gave MLL AF4-AF9 inh -1.6.
For CN1C(=O)c2cc(NC(=O)NC3CCCC3)ccc2OC[C@@H]2O[C@H](CC(=O)NCC3CC3)CC[C@H]21 the results were MLL AF4-AF9 inh -4.0.
Screening Cc1cc(C(=O)Nc2cccc3c2O[C@H](CN(C)C)[C@H](C)CN([C@@H](C)CO)C3=O)n(C)n1 returned MLL AF4-AF9 inh -2.3.
O=C(C1=C[C@@H](c2ccc3c(c2)OCO3)C[C@@H](OCc2ccc(CO)cc2)O1)N1CCCCC1 was read as MLL AF4-AF9 inh -3.0.
For C[C@H]1[C@@H](c2ccccc2)Oc2ccc(Cl)cc2S(=O)(=O)N1Cc1ccc(F)cc1F the results were MLL AF4-AF9 inh -3.0.
For O=C(N[C@H]1CC[C@H](CCNS(=O)(=O)c2ccccc2)O[C@@H]1CO)c1cccnc1 the results were MLL AF4-AF9 inh -1.5.

Screening results (PubChem BioAssay)
